Assay outcomes deposited in PubChem BioAssay by National Center for Advancing Translational Sciences (NCATS).
CtBP-E1A blk = qHTS Assay for Inhibitors of the CtBP/E1A Interaction; CtBP / adenovirus E1A interaction (AlphaScreen); AlphaScreen GST-E1A/His-CtBP binding, 1536-well; hits give low values; control for the full effect not named in the record; activity change, % (no concentration beside the values); 340,000 tested, 0.49% active; in the data active means activity change below about -65%; inconclusive means about -30% to -65%; inactive means above about -30%; note: % is set by controls: 0 for no effect and ±100 for the full control effect; compound concentration not given in the record
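GST-E1A and His-tagged CtBP (125 nM each as 5X stock) were preincubated with pin-transferred compound for 2 h at 37 °C in the dark, then glutathione donor and nickel acceptor beads were added for 1 h before AlphaScreen reading.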
Six1-Eya2 inh = qHTS Assay for Inhibitors of the Six1/Eya2 Interaction. activity change, % (no concentration beside the values). 360,000 tested, 0.56% active. AlphaScreen GST-Six1/His-Eya2 binding, biochemical; hits give low values; control for the full effect not named in the record; in the data active = activity change below about -65%; inconclusive = about -30% to -65%; inactive = above about -30%; note: % is set by controls: 0 for no effect and ±100 for the full control effect; compound concentration not given in the record
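Six1/Eya2 binding was read as AlphaScreen signal after compounds were pinned into GST-Six1 plus His-tagged Eya2 (5X stock 250/500 nM) in pH 8.0 Tris/NaCl/TCEP buffer, beads added, then incubated 1 h, 37 C, dark.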
TRPML1 blocker = qHTS for Inhibitors of the Human Mucolipin Transient Receptor Potential 1 (TRPML1). Mucolipin-1 (Homo sapiens), Q9GZU1. TRPML1-inducible cells, Ca2+ dye fluorescence, FDSS; hits give low values; inhibition of EC80 agonist-evoked calcium signal. activity change, negative = inhibition, % (no concentration beside the values). 390,000 tested, 0.02% active. AID 624415, 2012; in the data active means activity change below about -50%; inconclusive means about -30% to -50%; inactive means above about -30%;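 note: stimulus is agonist 54-4 at its EC80 concentration; % is set by controls: 0 for no effect and ±100 for the full control effect; compound concentration not given in the record; the text of the record puts the active cut at -80%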
Target sequence (Q9GZU1 whole entry, looked up): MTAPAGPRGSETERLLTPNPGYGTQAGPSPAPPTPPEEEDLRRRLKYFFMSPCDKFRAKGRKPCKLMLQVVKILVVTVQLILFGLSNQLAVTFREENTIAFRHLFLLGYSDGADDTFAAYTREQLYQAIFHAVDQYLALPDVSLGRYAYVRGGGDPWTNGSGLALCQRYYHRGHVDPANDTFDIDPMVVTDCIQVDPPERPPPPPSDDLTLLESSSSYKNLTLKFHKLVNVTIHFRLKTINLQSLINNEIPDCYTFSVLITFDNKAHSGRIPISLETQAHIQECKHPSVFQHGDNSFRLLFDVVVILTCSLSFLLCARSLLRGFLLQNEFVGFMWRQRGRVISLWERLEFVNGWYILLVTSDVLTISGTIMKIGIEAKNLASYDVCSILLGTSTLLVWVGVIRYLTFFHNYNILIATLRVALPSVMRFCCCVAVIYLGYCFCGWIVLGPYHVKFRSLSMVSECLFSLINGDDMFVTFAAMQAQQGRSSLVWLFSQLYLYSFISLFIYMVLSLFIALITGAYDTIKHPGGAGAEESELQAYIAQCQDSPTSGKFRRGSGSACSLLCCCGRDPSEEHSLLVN
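Calcium fluorescence in TRPML1-DL cells induced overnight with Tet: a 110 s read after compound pin addition, then a 110 s antagonist read after challenge with 54-4 at 4 uM final (EC80).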
PINK1 modulator = A Quantitative High throughput Screen to Identify Chemical Modulators of PINK1 Expression | PINK1 immunofluorescence, high-content cytometry, 24 h | 410,000 tested, 0.2% active | Potency, µM (series often up to 76.6 µM), without a hit: at the highest dose activation (PINK1 increase), most hits filed as activators; active = well fitted activation curve with a large enough effect; inconclusive = small, poorly fitted or top-dose-only effect; inactive = flat fitted curve, though single readings scatter; cell line not stated here;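 note: potency is the fitted concentration of half-maximal effect; % of control where 0% means no effect; nearly all actives have a fitted effect of over 65% in size; a mitochondrial uncoupler was the plate control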
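Fluorescence from anti-PINK1 antibody, together with nuclear and cell stains, was scanned on a laser-scanning cytometer. Before staining, stable-line cells were incubated 24 hours with compounds at 5 concentrations; primary antibody 12 h at 10 degrees C.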
D2 agonist = Beta-Arrestin HTS for Positive Allosteric Modulators of the Human D2 Dopamine Receptor: Agonists; D(2) dopamine receptor (Homo sapiens), P14416; DiscoveRx PathHunter D2 beta-arrestin, luminescence, 90 min; 100% = 57 uM dopamine signal; activation, % (no concentration beside the values); 360,000 tested, 0.084% active; in the data active = activation above about 40%; inconclusive = about 15% to 40%; inactive = below about 15%; note: compound concentration not given in the record; the text of the record calls up to 30% inactive
Target sequence (P14416 whole entry, looked up): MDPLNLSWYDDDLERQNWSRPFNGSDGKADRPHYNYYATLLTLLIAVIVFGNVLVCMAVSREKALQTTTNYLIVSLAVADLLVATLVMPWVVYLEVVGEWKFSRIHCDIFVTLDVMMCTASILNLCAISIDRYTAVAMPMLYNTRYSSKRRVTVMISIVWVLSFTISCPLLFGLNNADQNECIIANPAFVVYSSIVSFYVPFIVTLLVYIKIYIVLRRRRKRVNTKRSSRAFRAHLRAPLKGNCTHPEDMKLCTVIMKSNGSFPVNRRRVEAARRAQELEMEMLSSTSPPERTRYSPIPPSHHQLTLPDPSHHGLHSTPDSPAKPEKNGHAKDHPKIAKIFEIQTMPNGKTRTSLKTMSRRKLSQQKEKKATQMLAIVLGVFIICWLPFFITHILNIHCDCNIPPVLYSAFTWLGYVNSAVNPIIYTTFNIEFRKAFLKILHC
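DiscoveRx PathHunter D2 beta-arrestin cells (2,100/well) attached overnight, then compound-stimulated 90 min at 37 C in HBSS/10 mM HEPES/0.1% Tween-20 buffer; beta-galactosidase complementation read by luminescence after 1 h at ambient temperature. Dopamine 57 uM final (EC100) as control.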
TRPML1 agonist = qHTS for Agonists of the Human Mucolipin Transient Receptor Potential 1 (TRPML1); Mucolipin-1 (Homo sapiens), Q9GZU1; activation, % (concentration not given with the values); TRPML1-expressing cells, Ca2+ dye fluorescence, FDSS; host cell line not named in the record; reference of the full effect not given here; 410,000 tested, 0.12% active; AID 624414, 2012; in the data active = activation above about 50%; inconclusive = about 30% to 50%; inactive = below about 30%; note: 0% is about no effect; the text of the record puts the active cut at 80%
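Calcium fluorescence on an FDSS kinetic reader gave the read-out. Tet-induced TRPML1-DL cells were plated overnight, dye-loaded (Ca8 with quencher, 45-90 min, room temperature, dark), then read 110 s after compound addition, and again 110 s after 4uM final 54-4 (EC80).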
The depositor's hits bear a star; ? = inconclusive; nt = no result given; [ ] = remark or other dose.

SMILES	CtBP-E1A blk	Six1-Eya2 inh	TRPML1 blocker	PINK1 modulator	D2 agonist	TRPML1 agonist
CCOc1ccc(NC(=O)CN(C)C(=O)C2CC(=O)N(CCc3ccc(OC)c(OC)c3)C2)cc1OCC (configuration not stated)	0	-12	12	2.1%	-1.1	0.1
COc1ccc(/C(O)=C2/C(=O)C(=O)N(CCCN3CCOCC3)C2c2ccc(C)cc2)cc1 (configuration not stated)	3	0	4	-1.2%	0.9	-0.1
CCOC(=O)c1c(C)oc2cc(Br)c(O)c(Br)c12	-2	-1	-7	-0.2%	-3.3	1.6
CN(CCc1ccccc1)C(=O)c1ccc(NC(=O)Cc2ccc(NC(=O)C3CCN(C(=O)C4CCCC4)CC3)cc2)cc1	0	-2	9	6.2%	-2.5	0.9
COc1ccc(-n2nc(C(=O)NCC(=O)NCCCN3CCOCC3)c3ccccc3c2=O)cc1Cl	-3	2	1	1.3%	-1.8	-0.5
Cc1ccc(C(=O)CSc2nn3c(=O)c(C(C)(C)C)nnc3s2)cc1	0	4	27	1.8%[38.3 µM]	0.2	4.7
O=C(O)C1C2CCC(O2)C1C(=O)Nc1ccc(O)cc1 (configuration not stated)	20	9	-5	2.8%	-0.5	0.0
CCN(CC)CCn1c2c(c(SCC(=O)Nc3ccccc3Cl)nc1=O)CCCC2	0	-2	-6	-1.5%	-7.6	-0.7
Cc1ccc(OCCn2cc(/C=C(\C#N)C(=O)NCC3CCCO3)c3ccccc32)cc1 (configuration not stated)	-8	-3	-3	0.6%	1.4	1.5
CCOC(=O)C1=C(C)N(C)C(C)=C(C(=O)OCC)C1c1ccc(C(=O)OC)cc1	2	16	66	3.4%	0.7	1.0
O=C(CCNC(=O)C1CCN(S(=O)(=O)c2ccc(F)cc2)CC1)NC1CC1	-13	2	61	1.3%	-0.5	-0.3
O=C(Nc1cccc2nsnc12)c1cccnc1	-1	3	-21	4.9%	-2.9	0.5
Cn1c(SCC(=O)N2CCOCC2)ncc(C(=O)Nc2ccc(F)cc2)c1=O	nt	nt	15	?	nt	0.8
O=S(=O)(Nc1nccs1)c1ccc(NS(=O)(=O)c2c(F)cc(F)c(Cl)c2F)cc1	0	-12	29	1.3%	-2.1	0.7
CCN1CCN(C(=O)Cn2ncc3c4ccccc4n(Cc4ccccc4)c3c2=O)CC1	nt	nt	23	0.6%	nt	3.2
COc1cc(NC(=O)c2cc3c(s2)-c2ccccc2OC3)cc(OC)c1OC	nt	nt	-2	1.5%	nt	-0.4
OC1(c2ccc(F)cc2)CN(c2ccccc2)C2=[N+]1CCS2 (configuration not stated)	0	-5	-3	4.3%	-4.8	0.2
CC(C)(C)CNc1cc(N2CCCC2)ccc1[N+](=O)[O-]	-21	-11	-8	5.3%[38.3 µM]	-1.3	0.9
CCOc1ccc(S(=O)(=O)N2CCN(c3ncccn3)CC2)cc1	2	-4	5	1.6%	-1.9	-0.4
CCc1nnc(NC(=O)c2ccc(S(=O)(=O)N3CCOCC3)cc2)s1	-1	1	7	-0.2%	-5.9	0.2
CC(=O)C1=C(C)NC(SCC(N)=O)=C(C#N)C1C (configuration not stated)	5	0	21	0.0%	-0.1	0.1
Cc1ccc(C)n1-c1ccc(-n2cnnn2)cc1	-5	-9	-7	-24%[38.3 µM]	0.4	0.4
CN1CCN(c2ncnc3scc(-c4ccccc4Cl)c23)CC1	-8	-2	13	-0.9%	14	0.6
COc1cccc(C2=Cc3ccc(F)cc3C(CC(C)=O)N2c2ccc(-c3cncnc3)cc2)c1 (configuration not stated)	8	6	nt	1.1%	nt	0.3
O=C(C(=O)c1cccnc1)c1cccnc1	nt	-3	46	-1.0%	-7.6	-0.6

Four compounds from above, sorted by the number in Six1-Eya2 inh, high to low.
| structure | Six1-Eya2 inh |
| --- | --- |
| CCc1nnc(NC(=O)c2ccc(S(=O)(=O)N3CCOCC3)cc2)s1 | 1 |
| CCN(CC)CCn1c2c(c(SCC(=O)Nc3ccccc3Cl)nc1=O)CCCC2 | -2 |
| CCOc1ccc(S(=O)(=O)N2CCN(c3ncccn3)CC2)cc1 | -4 |
| Cc1ccc(C)n1-c1ccc(-n2cnnn2)cc1 | -9 |

Next records
SMILES	CtBP-E1A blk	Six1-Eya2 inh	TRPML1 blocker	PINK1 modulator	D2 agonist	TRPML1 agonist
N/C(=N\OC(=O)c1cc([N+](=O)[O-])ccc1Cl)c1ccccn1	-9	0	0	-1.3%	?	-0.5
CC(C)(C)S(=O)N1Cc2cc(C(=O)NCc3ccc(Oc4ccccc4)cc3)nc(-c3cccc(-c4cc5ccccc5o4)c3)c2[C@H]1CCO (some centres not stated)	-7	-15	-14	-0.6%	-2.8	0.5
Cc1ccc(CNC(=O)CCCn2c(=O)c3ccccc3n(Cc3ccc(Cl)cc3)c2=O)cc1	nt	nt	12	0.2%	nt	-0.5
COc1ccc(Cl)cc1NC(=O)C1CCCO1 (configuration not stated)	9	5	-1	-0.3%	-1.8	-0.2
O=C(CN1CCN(c2ccccn2)CC1)NCCc1ccccc1	5	4	18	-0.8%	4.8	-0.9
CSc1nc(N(C)C)nc(N(C#N)CCOC(C)=O)n1	-27	0	-20	-1.7%	-1.0	0.0
COc1ccccc1OCC(=O)NCCS(=O)(=O)N1CCN(c2ccc(F)cc2)CC1	2	-1	-20	-0.3%	4.8	0.5
O=C(Oc1ccc(/C=N/O)cc1)c1ccccc1Cl	nt	0	27	4.6%	6.5	2.9
Cc1ccc(C(=O)OCc2c(C)noc2C)cc1NC(=O)c1ccco1	1	-7	1	0.1%	6.9	-1.0
CCOC(=O)C(C(=O)Nc1ccccc1C)C1CCCCC1 (configuration not stated)	7	4	8	nt	-3.0	0.3
CC(=Nc1ccccc1)C1=C(O)C(Cc2ccc(O)cc2)NC1=O (configuration not stated)	-2	7	20	10%	-1.4	0.8
O=C(COC(=O)c1ccc(Cl)c(S(=O)(=O)N2CCN(c3ccc(F)cc3)CC2)c1)Nc1cccc(Cl)c1	0	-11	-4	0.8%	3.8	0.7
CC1(C)CCc2cc(-c3ccnc(=S)[nH]3)ccc2O1	-1	-1	-19	6.7%	-1.7	0.7
Cc1ccc(C(=O)Nc2ccccc2N2CCCCC2)cc1	21	3	-3	3.2%	-1.9	2.0
NC(=O)c1cc(S(=O)(=O)NCCc2ccc(S(N)(=O)=O)cc2)cs1	nt	7	21	14%	-7.4	2.7
CNS(=O)(=O)c1ccc(C(=O)NCC(=O)NCCc2ccc3c(c2)OCCO3)cc1	-1	2	2	1.0%	-3.8	0.0
COc1ccc(NC(=O)Nc2nnc(-c3ccncc3)s2)cc1	6	-3	0	15%	13	-0.1
COc1ccccc1N1CCN(C(=O)Cn2c(=O)[nH]c3ccsc3c2=O)CC1	0	4	-2	1.9%	-4.6	0.0
Fc1ccc(OCc2nc(-c3ccc(Br)o3)no2)c(F)c1	19	27	20	1.5%	-0.7	1.2
CCSc1nc2ccccc2n1Cc1nc(N)nc(N(C)C)n1	23	-2	-9	0.5%[38.3 µM]	-1.3	-0.2
COCCCNS(=O)(=O)c1ccc2[nH]c(=O)[nH]c2c1	-1	-8	-2	-0.1%	1.2	-0.7
O=C(NCCc1ccccc1)Nc1ccc(Cl)cc1	4	3	-6	3.4%	-5.5	0.6
O=C1C(C=NCCN2CCOCC2)=C(O)c2ccccc21	-9	-6	0	-1.7%	-2.8	0.2
Cc1c(CNC2CCCC2)c(C(=O)O)c(C)n1Cc1ccccc1	11	8	26	0.6%	-2.9	0.0
CCn1ncc(/C=C/C(=O)c2ccccc2)c1C	-2	0	-13	1.9%	0.9	-0.7

Continuation.
SMILES	CtBP-E1A blk	Six1-Eya2 inh	TRPML1 blocker	PINK1 modulator	D2 agonist	TRPML1 agonist
CC1CN(Cc2ccccc2)C(=O)N(c2ccccc2)C1=O (configuration not stated)	5	9	-10	-1.1%	-0.7	-0.6
Cc1ccc(C(C)C)c(OCC(=O)NCC2(N3CCOCC3)CCCCC2)c1	nt	nt	-20	1.3%	nt	76*
O=C(N/N=C/c1cccc2ccccc12)c1cccs1	-5	0	25	2.2%	4.3	1.0
O=C(COC(=O)Cc1cn2ccsc2n1)NC12CC3CC(CC(C3)C1)C2	0	-3	3	-0.2%	-2.1	-1.0
Cc1nc2ccc(Nc3ccncc3)cc2s1	nt	1	-9	-0.3%	2.2	0.1
CC(=O)Nc1c(Cl)cc2c(c1Cl)Cc1ccccc1-2	4	-2	-15	2.3%	0.5	0.8
CSc1ccc(CN2CCN(C(=O)c3ccncc3)CC2)cc1	-7	-3	14	1.4%	-2.3	1.2
CCC1(C)NC(=O)N(CC(=O)N2CCC(Cc3ccccc3)CC2)C1=O (configuration not stated)	0	-2	-4	-1.5%	-3.4	-0.4
Cc1nn(-c2ccc(N3CCOCC3)nn2)c(C)c1CCC(=O)Nc1ccc(F)cc1F	nt	nt	-16	-0.2%	nt	-0.2
CCOc1ccc(-c2n[nH]c3c2C(c2ccccc2OC)N(c2ccc(Br)cc2)C3=O)cc1 (configuration not stated)	nt	nt	3	0.7%	nt	1.0
Cc1cc(NC(=O)C2CC(=O)N(c3cccc(C)c3C)C2)no1 (configuration not stated)	7	-5	49	0.8%	-2.1	1.5
CCNC(=O)c1ccccc1CCc1ccccc1	0	11	-23	3.4%	-4.3	0.4
C/C(=N\Nc1ccc([N+](=O)[O-])cc1)c1cc2ccccc2o1	4	6	23	?	-15	11
c1ccc(-c2cn(-c3ccccc3)c3ncnc(N4CCCCC4)c23)cc1	-9	-19	-3	?	-4.7	-0.4
COc1ccc(C(=O)O)cc1F	-2	3	3	-0.4%	-2.7	-0.5
COc1ccc(/C=C(/C#N)C(=O)Nc2cccc(C)c2C)cc1C(=O)O	-10	-6	8	0.5%	-2.0	0.9
O=C(COC(=O)/C=C/c1cccc(Cl)c1)Nc1ccc(N2CCOCC2)cc1	0	0	5	9.2%	1.2	-0.5
Cc1ccc(S(=O)(=O)N2CCC3(CC2)CC(=O)c2ccccc2O3)cc1	0	1	-11	-3.7%	-1.3	0.9
O=C(CCSCCC(=O)Nc1ccccc1F)Nc1ccccc1F	1	2	7	1.7%	1.1	-0.1
COc1ccccc1-c1nnc(SCC(=O)c2ccc(F)cc2)n1-c1ccccc1	nt	nt	-4	16%	nt	3.5
CCOc1ccccc1Nc1nnc(SCC(=O)NC(=O)c2cccn2C)s1	nt	-12	9	1.2%	-3.6	1.7
COc1cccc(NC(=O)c2cc(-c3ccncc3)nc3c(C)cc(C)cc23)c1	-2	0	-6	5.4%	8.8	0.7

Exported bar-delimited: part of the list above
SMILES | CtBP-E1A blk | Six1-Eya2 inh | TRPML1 blocker | PINK1 modulator | D2 agonist | TRPML1 agonist
O=C(COC(=O)Cc1cn2ccsc2n1)NC12CC3CC(CC(C3)C1)C2 | 0 | -3 | 3 | -0.2% | -2.1 | -1.0
C/C(=N\Nc1ccc([N+](=O)[O-])cc1)c1cc2ccccc2o1 | 4 | 6 | 23 | ? | -15 | 11
